Compound activity from PubChem BioAssay.
miR-21 reporter = raises the signal of a miR-21 reporter; HeLa miR-21 FLuc reporter, luciferase, 48 h; Potency, µM (highest dose often 38.3 µM), for the others: top-dose reporter change, positive = more light; 340,000 tested, under 10 active; active = well fitted rising curve with a large enough effect; inconclusive = small, poorly fitted or top-dose-only effect; inactive = no such curve, though single readings can be large or run the other way;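 further: % of control where 0% means no effect; miR-21 action dims this reporter so a rising signal means less miR-21 action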
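Compounds were titrated across several concentrations (up to approximately 40 uM) and incubated 48 hours with HeLa miR-21-FLuc reporter cells (miR-21 target sequence downstream of FLuc, endogenous miR-21). Readout was firefly luciferase luminescence after lytic detection reagent.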
* hit, by the source's call; ? = inconclusive. Some of the compounds tested, so the mix of outcomes need not match the whole.

The opening two compounds (preview)
SMILES	miR-21 reporter
COc1ccc(CNc2oc(-c3ccc(COc4ccccc4C)o3)nc2C#N)cc1	11%
CCCCN(CC)CCCNC(=O)Cn1nc(CC)n2c(cc3sccc32)c1=O	-6%

All compounds of this part, from the start:
SMILES	miR-21 reporter
COc1ccc(CNc2oc(-c3ccc(COc4ccccc4C)o3)nc2C#N)cc1	11%
CCCCN(CC)CCCNC(=O)Cn1nc(CC)n2c(cc3sccc32)c1=O	-6%
COc1ccc(C(=O)c2oc3ccccc3c2NC(=O)c2ccc(F)cc2)cc1	-4%
CCOC(=O)c1c(NC(=O)c2ccc(S(=O)(=O)N(CCOC)CCOC)cc2)sc2c1CC(C)(C)NC2(C)C	4%
COc1ccc2c(c1)c(=O)c(S(=O)(=O)c1ccc(C)cc1)cn2Cc1ccccc1C	12%
O=C(Nc1ccc(N2CCN(CCOc3ccc(Cl)cc3)CC2)c(C(=O)O)c1)c1ccc(F)cc1	2%
c1csc(C2=NC(c3ccncc3)=Nc3ccccc3N2)c1	1%
Cc1cc(N2CCN(c3cccc(C)c3C)CC2)n2cnnc2n1	-2%
O=c1c2c3c(sc2n(Cc2ccccc2F)c(=O)n1-c1ccc(Cl)cc1)CCCC3	-6%
COC(=O)c1c(NC(=O)c2cc(OC)c(OC)c(OC)c2Br)sc2c1CCC(C)C2 (stereo not drawn)	-9%
COc1ccc(-n2c(SCc3nc(-c4ccc(Cl)cc4)no3)nnc2-c2ccncc2)cc1	-3%
CCNC(=O)C1CCCN(c2nnc(C)c3c(C)n(-c4ccc(C)cc4)nc23)C1 (stereo not drawn)	-3%
Cc1cc(=O)n(CC(=O)N2CCCc3ccccc32)c2c1c(C)nn2-c1cccc(F)c1	-3%
CCCCn1cnc2cc(NCc3ccc(OCC)cc3)ccc21	-21%
CCC1Sc2ccccc2N(CC(=O)NCc2ccc(C)cc2)C1=O (stereo not drawn)	-1%
COc1cccc(C(=O)CC2(O)C(=O)N(Cc3ccccc3)c3ccccc32)c1 (stereo not drawn)	-1%
Fc1ccc(C2=NC(c3cccc(C(F)(F)F)c3)=Nc3ccccc3N2)cc1	23%
CC(C)OCCCn1c(SCc2cccc(Br)c2)nc2c(sc3ccccc32)c1=O	0%
O=C(CSc1oc(-c2ccco2)nc1S(=O)(=O)c1ccc(Cl)cc1)c1ccc(Cl)cc1	21%
Cc1ccccc1CN1CCCN(CC(=O)Nc2c(C)cccc2C)S1(=O)=O	0%
CCC1CN(C(=O)Nc2cc(Cl)ccc2C(=O)OC)c2ccccc2S1 (stereo not drawn)	2%
Cc1nnc(N2CCCC(C(=O)NCc3ccccc3)C2)c2nn(-c3ccccc3)c(C)c12 (stereo not drawn)	2%
COC(=O)c1cc2sc(C)cc2n1CC(=O)Nc1ccc(C)cc1Cl	-8%
Cc1ccc(C)c(Cn2c(=O)n(-c3ccc(F)cc3)c(=O)c3sc4ccccc4c32)c1	0%
CC(=O)N1CCC2(CC1)OC(=O)C(C)=C2C(=O)NCc1ccccc1Cl	-16%
O=C(NCC(c1cccs1)S(=O)(=O)c1ccccc1)c1ccc(C(F)(F)F)cc1 (stereo not drawn)	10%
COc1ccc(NC(=O)[C@@H](c2ccccc2)N2Cc3ccccc3C2=O)cc1OC	-8%
COc1ccc(NC(=O)CC2C(=O)N(c3ccc(OC)cc3)C(=O)N2CCC2=CCCCC2)cc1 (stereo not drawn)	-9%
Cc1ccc2nc(N3CCN(c4ccccc4F)CC3)c3nnnn3c2c1	2%
Cc1ccc(-n2nc(CO)c(C(=O)NCc3cccs3)n2)cc1C	14%
COC(=O)c1ccccc1NC(=O)c1nn(C)c2c1COc1ccccc1-2	0%
CCc1c(-c2ccccc2)nc2ccccc2c1C(=O)NCCc1ccccc1	5%
Cc1cc(Cl)ccc1NC(=O)c1cc2ccccn2n1	-20%
COc1ccc(C(=O)N(Cc2cc(OC)c(OC)c(OC)c2)CC2CCCO2)cc1 (stereo not drawn)	1%
Cc1ccc(OCC(=O)NCC(c2ccc(Cl)cc2)N2CCOCC2)cc1C (stereo not drawn)	3%
CCOc1ccc(-c2cccc(NS(=O)(=O)c3ccccc3C(F)(F)F)c2)nn1	-10%
Cc1ccc(CCNC(=O)CCCn2c(=O)c3ccccc3n(Cc3ccccc3C#N)c2=O)cc1	-10%
CCc1ccc(NC(=O)Cn2c(=O)oc3cc(S(=O)(=O)N4CCCCCC4)ccc32)cc1	13%
CCOC(=O)c1cc(-c2ccc(C)cc2)n(CCC(=O)NCCc2ccc(C)cc2)c1C	-5%
CCOC(=O)c1c(C)[nH]c(C)c1S(=O)(=O)N1CCC(C(=O)NCc2ccccc2)CC1	-5%
Cc1ccc(CCNC(=O)c2ccc(CS(=O)(=O)c3ccc(Br)cc3)o2)cc1	-1%
CCCCOc1ccc(NC(=O)c2cc3c(n(-c4ccc(Cl)cc4)c2=O)CCCC3=O)cc1	-1%
CC(=O)N1CCN(C(=O)C(=O)Nc2c3c(nn2-c2ccc(Cl)cc2)CSC3)CC1	3%
Cc1nc2nc(SCC(=O)NCc3ccccc3Cl)nn2c(C)c1Cc1ccccc1	16%
COc1ccc(-c2cc(C(=O)Oc3ccc(C)cc3)c3ccccc3n2)cc1	-5%
CC1(C)N=C(c2ccc(F)cc2)C(=O)N1CC(=O)Nc1ccccc1Cl	-2%
CCCCc1nn2c(=O)cc(COC(=O)c3ccccc3NC(=O)C3CCCCC3)nc2s1	-1%
Cc1cc(Br)cc(C)c1NC(=O)c1cnc2ccccn2c1=O	-30%
Cc1cccc(CSCCNC(=O)CN(c2ccccc2)S(=O)(=O)N(C)C)c1	1%
CC1=Nc2cc(C(=O)NC(C)C)ccc2Sc2ccc(C)cc21	18%

3 entries from above, in markdown.
| compound | miR-21 reporter |
| --- | --- |
| Cc1cc(Br)cc(C)c1NC(=O)c1cnc2ccccn2c1=O | -30% |
| Cc1cccc(CSCCNC(=O)CN(c2ccccc2)S(=O)(=O)N(C)C)c1 | 1% |
| CC1=Nc2cc(C(=O)NC(C)C)ccc2Sc2ccc(C)cc21 | 18% |

A second format for 7 compounds above:
| SMILES | miR-21 reporter |
| --- | --- |
| COc1ccc(-c2cc(C(=O)Oc3ccc(C)cc3)c3ccccc3n2)cc1 | -5% |
| CCCCc1nn2c(=O)cc(COC(=O)c3ccccc3NC(=O)C3CCCCC3)nc2s1 | -1% |
| CC1(C)N=C(c2ccc(F)cc2)C(=O)N1CC(=O)Nc1ccccc1Cl | -2% |
| Cc1cc(Br)cc(C)c1NC(=O)c1cnc2ccccn2c1=O | -30% |
| Cc1nc2nc(SCC(=O)NCc3ccccc3Cl)nn2c(C)c1Cc1ccccc1 | 16% |
| CC1=Nc2cc(C(=O)NC(C)C)ccc2Sc2ccc(C)cc21 | 18% |
| Cc1ccc(CCNC(=O)c2ccc(CS(=O)(=O)c3ccc(Br)cc3)o2)cc1 | -1% |

Following part.
SMILES	miR-21 reporter
CCOc1ccc(CNC(=O)CS(=O)(=O)c2cccc3nsnc23)cc1	2%
COc1cc2c(cc1OC)C(c1cc3cccc(C)c3[nH]c1=O)N(C(=O)c1ccco1)CC2 (stereo not drawn)	6%
Cc1ccc(N(Cc2cccs2)C(=O)c2ccc(OC(C)C)cc2)cc1	?
COc1ccc(N2Cc3cccc(C(=O)Nc4ccc(C)cc4)c3C2=O)cc1	-3%
COc1ccc(CCNC(=O)c2cccc(Nc3nc4ccccc4nc3-n3nc(C)cc3C)c2)cc1OC	-1%
CC(=O)C1=C(c2ccc(C)cc2)N(C(C)=O)n2c(nnc2C2CCCCC2)S1	?
CC(C)(C)c1ccc(-c2nc3cc(NC(=O)c4cc5ccccc5o4)ccc3o2)cc1	-49%
Cc1ccc(-n2c(=O)c3ccc(C(=O)NCc4ccco4)cc3n(Cc3ccc(Cl)cc3)c2=O)cc1	-11%
Cc1ccc(S(=O)(=O)Nc2ccc(-c3ccc(N4CCCCCC4)nn3)cc2)c(C)c1	2%
COC(=O)c1sccc1S(=O)(=O)N1CCN(c2ccc(Cl)cc2)CC1	-2%
Cc1ccc2c(C(=O)CN3CC(C)CC(C)C3)c(C)[nH]c2c1 (stereo not drawn)	-4%
CN(C)c1ccc(CNC(=O)C(Cc2ccccc2)NS(=O)(=O)c2ccc3c(c2)oc(=O)n3C)cc1 (stereo not drawn)	11%
CCN(C(=O)CSc1nc2ccccc2n1CC(=O)Nc1ccc(F)cc1F)c1ccccc1	?
COc1ccc(NC(=O)Cn2cc(S(=O)(=O)c3ccc(C)cc3)c(=O)c3ccccc32)cc1OC	-2%
Cc1ccc(N2CCN(c3c(CN4CCCC4)c(=O)oc4ccccc34)CC2)c(C)c1	10%
CCOc1cc(CNC(=O)c2ccc3nc(C(C)C)oc3c2)cc(OCC)c1OCC	-4%
O=C(Cn1ncc2c(Cl)cccc21)NCc1cccc(Cl)c1	-20%
Cc1c(CNC2CCCCCC2)c(C(=O)O)c(C)n1Cc1ccc(F)cc1Cl	-4%
CN(C)c1ccc(CNC(=O)c2sc3ncccc3c2-n2cccc2)cc1	-1%
COc1ccccc1N1CCN(C(=O)c2cnn(-c3cccc(Cl)c3)c2C2CCN(C(=O)OC(C)(C)C)CC2)CC1	28%
Cc1ccc(C)c(N2CCN(C(=O)CCn3c(=O)[nH]c4ccccc4c3=O)CC2)c1	25%
O=C(Cn1c(-c2cccs2)cc2ccccc21)NCCCN1CCN(c2ccc(F)cc2)CC1	-3%
CN(C)S(=O)(=O)N1CCC(n2c(C(F)(F)F)nc3cccnc32)CC1	-7%
COC(=O)c1c(NC(=O)C(C)Oc2ccc(Cl)cc2Cl)sc2c1CCCC2 (stereo not drawn)	-4%
CC(C)OCCCNC(=O)c1nn(C)c2c1CSc1ccccc1-2	-4%
CSc1ncc(C(=O)NCc2ccc(C)cc2)c(-c2ccccc2)n1	-2%
COc1ccc(C(=O)Oc2c(Sc3ccc(Cl)cc3)c(C)nn2C(C)(C)C)cc1OC	30%
Cc1cc(C)cc(-n2ccnc2SCC(=O)Nc2ccccc2F)c1	15%
O=C(Cc1ccccc1)N(Cc1cccnc1)c1nc2ccc(F)cc2s1	-15%
COCCCNc1ncnc2c1cnn2-c1ccc(F)cc1	1%
COc1cccc(NC(=O)c2sc3nc(C)c(C(=O)Nc4ccc(C)cc4C)c(-c4ccc(Br)cc4)c3c2N)c1	2%
Cc1ccc(NC(=O)C2CCCN(S(=O)(=O)c3cccc4cccnc34)C2)c(C)c1 (stereo not drawn)	11%
COc1ccc(-c2cn3nc(N4CCCC(C(=O)Nc5ccc(C)c(C)c5)C4)sc3n2)cc1 (stereo not drawn)	2%
Cc1cc(O)c(-c2ccnc3cc(-c4ccccc4)nn23)cc1Cl	4%
Cc1ccc(S(=O)(=O)N2CCN(Cc3ccccc3)CC2)c(C)c1NS(C)(=O)=O	-4%
COc1ccc(-c2noc(CSc3nnc(-c4ccc(Cl)cc4)n3C)n2)cc1OC	-8%
Cc1ccc2[nH]c3c(=O)n(CC(=O)N(CCN(C)C)Cc4ccccc4)ncc3c2c1	0%
Cc1ccc2c(=O)c(C(=O)c3ccccc3)cn(CC(=O)Nc3ccccc3)c2n1	-3%
CC(C)OC(=O)c1cccnc1SCC(=O)Nc1ccc(C(F)(F)F)cc1Cl	-19%
Cc1c2cnn(CC(=O)NC(C)C)c(=O)c2c(C)n1Cc1cccc(Cl)c1	-4%
Cc1ccc(CCNC(=O)CCSCc2ccccc2F)cc1	-2%
Cc1oc2ncn(CC(C)C)c(=O)c2c1C(=O)N(Cc1ccccc1)C(C)C	2%
Cc1nn(Cc2noc(C(=O)NCc3cccc(F)c3)n2)c(C)c1Br	-5%
CCc1ccc(NC(=O)CSc2nc3nccnc3c(=O)n2CCc2c[nH]c3ccccc23)cc1	-9%
COc1cc2c(cc1OC)n(CC(=O)c1ccc(C)cc1)c(=O)n1nc(CCn3nc(C)cc3C)nc21	-7%
CCc1ccc(NC(=O)C(=O)NCCc2csc(-c3ccc(C(F)(F)F)cc3)n2)cc1	-26%
CCOC(=O)c1[nH]c(C)c(CCC(=O)Nc2cc(Cl)c(OC)cc2OC)c1C	-6%
Cc1ccc(NC(=O)c2c(NC(=O)c3ccco3)sc3c2CCC(C(C)(C)C)C3)c(C)c1 (stereo not drawn)	2%
COC(=O)CC1Oc2ccc(Cl)cc2-n2cc(-c3ccc(C)cc3)nc21 (stereo not drawn)	0%
CC(=O)c1cccc(NC(=O)c2nc(-c3ccc(C)cc3)n3c2CCCCC3)c1	-28%
Next part.
SMILES	miR-21 reporter
CC1CCN(c2nc3c(S(=O)(=O)c4ccc(Cl)cc4)nnn3c3ccsc23)CC1	-9%
O=C(CSc1nc2sc3c(c2c(=O)[nH]1)CCCC3)Nc1ccccc1F	1%
Cc1ccc2c(=O)c(C(=O)c3cccc(Cl)c3)cn(CC(=O)NC3CCCCC3)c2n1	1%
CCOC(=O)c1cnc2c(C)cc(C)cc2c1Nc1ccc(OCc2ccccc2)cc1	-4%
O=C(Cn1c(=O)nc(-c2ccccc2)c2cc(Cl)ccc21)N1CCN(c2ccc(F)cc2)CC1	-1%
O=C(Cc1ccc(Cl)cc1)NC1CC(=O)N(c2ccc3c(c2)OCCO3)C1 (stereo not drawn)	-2%
CCCCN1C(=O)C(O)(CC(=O)c2ccc(CC)cc2)c2cc(Br)ccc21 (stereo not drawn)	?
CCc1cc(=O)[nH]c(SCc2nc(-c3ccccc3)no2)n1	-12%
CC(=O)c1ccc(NC(=O)C2=CC(c3ccc(C)cc3)=NS(=O)(=O)N2C)cc1	3%
Cc1ccc(NC(=O)c2ccc(CN3CC(=O)N4CCCCC4C3=O)cc2)cc1C (stereo not drawn)	4%
Nc1nonc1C(=O)NCCNCc1ccccc1F	-2%
CCc1nc(SC)ncc1C(=O)N1CCN(c2cc(C)ccc2C)CC1	-1%
COc1cccc(-n2cc(C(=O)Nc3cc(OC)c(OC)c(OC)c3)c3ccccc3c2=O)c1	-7%
O=C(Nc1cccc(Br)c1)N1CCN2CCCCC2C1 (stereo not drawn)	-17%
Cc1ccc(Nc2nc3ccc(C(=O)c4ccccc4)cc3n3c(C)nnc23)c(C)c1	1%
CCOc1ccc(CCNC(=O)c2nn(C)c3c2CSc2ccccc2-3)cc1	0%
